AmpC inh no det: inhibitors of E. coli AmpC beta-lactamase without detergent; P00811; AmpC nitrocefin hydrolysis, absorbance 480 nm, no detergent; potencies from a single point are estimates; Potency, µM (series often up to 28.7 µM), for inactives: top-dose activity change, negative = inhibition; 71,000 tested, 1.8% active; active = falling curve, for most hits resting on a single point; inconclusive = weak or doubtful change; inactive = flat or rising curve; further: % of control where 0% means no effect; about half of the hits show no inhibition at the top dose; a quarter of the inactives give rising signals
Target sequence (P00811 whole entry, looked up): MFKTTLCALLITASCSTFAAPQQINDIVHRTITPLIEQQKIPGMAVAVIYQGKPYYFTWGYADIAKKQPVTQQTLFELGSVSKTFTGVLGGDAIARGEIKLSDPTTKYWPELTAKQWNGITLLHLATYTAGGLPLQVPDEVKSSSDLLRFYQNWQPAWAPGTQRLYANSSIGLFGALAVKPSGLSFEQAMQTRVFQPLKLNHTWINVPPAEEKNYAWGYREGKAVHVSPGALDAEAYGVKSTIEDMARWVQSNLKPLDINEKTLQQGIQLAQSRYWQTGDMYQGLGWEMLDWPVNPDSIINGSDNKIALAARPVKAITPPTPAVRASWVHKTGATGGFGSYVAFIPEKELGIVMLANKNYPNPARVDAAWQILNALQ
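AmpC in 20 mM phosphate buffer pH 7.0 was preincubated 15 min at room temperature with compounds. Nitrocefin (800 uM stock) was then added and hydrolysis followed at 480 nm every 20 s for 4 min.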
* hit, by the source's call; u = inconclusive; & = joins results of further samples; [ ] = another dose, or the depositor's remark. Potency means the concentration at half of the fitted maximal effect.

No.	Compound	AmpC inh no det
1	Cc1n[nH]c(C)c1S(=O)(=O)N1CCCC(C(=O)Nc2nccs2)C1 (stereo not drawn)	-1%
2	Oc1ccccc1-c1nnc(COc2ccccc2)o1	0%
3	CNC(=O)CN1C(=O)CSc2ncccc21	0%
4	CCc1c(C)nc(Nc2nc(C)c3cc(OC)ccc3n2)[nH]c1=O	126%
5	NC(=O)C1CCN(CC(=O)N2c3ccccc3CCc3ccccc32)CC1	11%
6	Cc1ccc(OCCN2CCCCCC2)c(C)c1	11%
7	COc1ccc2c(Cc3c4ccccc4cc4ccccc34)cncc2c1O	-7%[5.75 µM]
8	CC(C)CCNC(=O)CN(CC1CCCO1)C(=O)CCC(=O)Nc1ccccn1 (stereo not drawn)	13%
9	CC(=O)c1c(C)n(-c2ccc(N(C)C)cc2)c2ccc(OCC(N)=O)cc12	65%
10	COc1ccc(OCC(=O)N2CC3(C)CC2CC(C)(C)C3)cc1 (stereo not drawn)	46%
11	c1ccc2c(c1)nc1n2CN(Cc2ccc3c(c2)OCO3)CN1	-4%
12	CN(C)C(=O)N1CCCC(C(=O)NCc2ccccc2Cl)C1 (stereo not drawn)	2%

Shown field by field: 4 of the compounds above
1: Cc1n[nH]c(C)c1S(=O)(=O)N1CCCC(C(=O)Nc2nccs2)C1 (stereo not drawn)
  AmpC inh no det: -1%

2: Oc1ccccc1-c1nnc(COc2ccccc2)o1
  AmpC inh no det: 0%

3: CNC(=O)CN1C(=O)CSc2ncccc21
  AmpC inh no det: 0%

4: CCc1c(C)nc(Nc2nc(C)c3cc(OC)ccc3n2)[nH]c1=O
  AmpC inh no det: 126%

Next results:
No.	Compound	AmpC inh no det
13	Cc1nc2ccccc2c2oc(C(=O)NCc3ccccn3)cc12	40%
14	COC(=O)N1CCN(c2ccc(Cl)c(Cl)c2)CC1	47%
15	CCc1nnc(NC(=O)CSc2nnc(CNc3ccc(F)cc3)n2C2CCCCC2)s1	26%
16	Cc1cc(NC(=O)CSc2nc(-c3ccco3)cc(C(F)(F)F)n2)no1	-11%
17	COC(=O)c1[nH]c2cc(C)ccc2c1NC(=O)CN1CCN(C(=O)c2ccco2)CC1	91%
18	Cc1c(Cc2ccccc2)c(=O)oc2cc(OCc3nn[nH]n3)ccc12	10µM*[single pt active]
19	O=C(Cn1cc2c(n1)CCCC2)NCC1CCCO1 (stereo not drawn)	-2%
20	O=C(CCS(=O)(=O)c1cccc2nsnc12)NCc1ccccc1	-7%
21	Cc1ccccc1-c1nc(N(C)Cc2ccco2)c2ccccc2n1	16%
22	Cc1ccccc1C1CC(c2ccccc2OC(F)F)Nc2ncnn21 (stereo not drawn)	65%
23	CCCCc1ccc2nc(NC(=O)OC)[nH]c2c1	-10%[12.8 µM]
24	CC(C)N1CC(C(=O)Nc2ccc(Br)c(Cl)c2)CC1=O (stereo not drawn)	6%
25	COc1ccc(C2C(C(=O)c3cc4cccc(OC)c4o3)=C(O)C(=O)N2CCCN(C)C)cc1OC (stereo not drawn)	-8%
26	O=C(CSc1nnc(-c2ccncc2)n1-c1ccc(Cl)cc1)N1CCOCC1	39%
27	Cc1ccc(Cn2cnc3c(nnn3Cc3ccc(Cl)cc3)c2=O)cc1	-7%
28	Cc1c(NC(=O)c2ccc(Br)o2)c(=O)n(-c2ccccc2)n1C	-3%
29	COc1ccc2[nH]cc(CCNc3cc(-c4ccc(C(=O)N(C)C)cc4)ncn3)c2c1	77%
30	C=CCOc1cccc(C2C(C(=O)c3ccco3)=C(O)C(=O)N2CCN(CC)CC)c1 (stereo not drawn)	-4%
31	N#Cc1cn(Cc2cccc(Cl)c2)c2ccccc12	-6%
32	CC(c1nnc(SCC(=O)Nc2ccc3[nH]c(=O)[nH]c3c2)n1Cc1ccccc1)N(C)C (stereo not drawn)	6%
33	O=C(Nc1ccccc1)Nc1ccc(S(=O)(=O)N2CCCCC2)cc1	-23%
34	CCOC(=O)C1=C(C)N=C2SCCC(=O)N2C1c1cc(Br)ccc1OC (stereo not drawn)	97%
35	Cc1ccc(C(=O)Nc2sc3c(c2C(=O)O)CCCCC3)o1	-17%
36	O=C(CN1CCC(O)(c2ccccc2F)CC1)NCCc1c[nH]c2ccccc12	57%
37	O=C(Nc1ccc(S(=O)(=O)N2CCCCCC2)cc1)C1CCCO1 (stereo not drawn)	3%
38	CCCCCC1CC(CC(C)C(=O)Nc2nncs2)C(=O)O1 (stereo not drawn)	30%
39	O=C(CC1CC2CCC1C2)NCc1cccs1 (stereo not drawn)	-7%
40	CCOC(=O)c1c(C)[nH]c(C(=O)O)c1C	-5%
41	CSc1nnc2c3c4c(sc3c(=O)n(-c3ccccc3)n12)CC(C)(C)OC4	38%
42	CCN(CC)CCN1C(=O)C(=O)/C(=C(/O)c2c(C)[nH]c(C(=O)OC)c2C)C1c1ccccc1OC (stereo not drawn)	7%
43	O=C(NCc1ccccc1)c1cc(S(=O)(=O)N2CCC3(CC2)OCCO3)ccc1F	26%
44	O=C1c2cccnc2C(O)N1Cc1ccco1 (stereo not drawn)	-1%
45	COCC(=O)N1CCC2(CC1)CCN(C(=O)Nc1cccc(F)c1)CC2	18%
46	Cc1ccc(Cn2nnc3c(=O)[nH]c(C4CCN(S(=O)(=O)c5ccc(F)cc5)CC4)nc32)cc1	20%
47	O=C(c1c(Cl)nc2sccn12)N1CCN(c2cccc(Cl)c2)CC1	75%
48	CC(=O)NC(C)C(c1cccs1)N1CCN(c2ccccc2)CC1 (stereo not drawn)	28%
49	Cn1c(=O)n(CCc2ccccc2)c(=O)c2c1nc1n2CCN1c1ccccc1	-10%
50	CSc1nc(N)c(C#N)c(-c2ccc(Cl)cc2)c1C#N	u
51	Cc1cccc(CNc2cc(-c3ccc(N(C)C)cc3)ncn2)c1	u
52	COP(=O)(OC)OC=C(Cl)Cl	-5%&-6%
53	Cn1c(=O)n(C)c2cc(CNc3ccc(N4CCOCC4)c(C(=O)O)c3)ccc21	15%
54	Cc1cc(C)n2nc(SCC(=O)Nc3ccc(F)cc3)nc2n1	4µM*[single pt active]
55	Cc1c[nH]c(=O)n(CCCN2CCN(c3ccccc3OCC(F)(F)F)CC2)c1=O	10%
56	Cn1c(=O)c2c(-c3ccccc3)n(N3CCOCC3)cc2n(C)c1=O	4%
57	CCC1(C)Cc2c(sc3nc(NC)n(C)c(=O)c23)CO1 (stereo not drawn)	16%
58	C=CCn1c(SCC(=O)Nc2ccc3c(c2)OCO3)nnc1-c1ccccc1O	-6%
59	O=C(CCn1nnc2ccccc21)N1CCC(O)(c2cccc(F)c2)CC1	6%
60	Cc1ccc(S(=O)(=O)N2CCOCC2)cc1C(=O)Nc1ccccn1	9%
61	O=C(Cn1c(C(=O)NCc2ccco2)cc2sccc21)c1ccccc1	-21%
62	COc1cccc(-c2n[nH]c(=S)n2Cc2ccco2)c1OC	-7%
63	CC1CCN(C(=O)Nc2cccc(NC(=O)N3CCC(C)CC3)c2)CC1	5%
64	CC(=O)N1CCN(c2ccc(NC(=O)c3ccc4c(c3)OCCO4)cc2)CC1	17%
65	CCOC(=O)C1CCN(S(=O)(=O)c2cnc[nH]2)CC1	-9%
66	Nc1c(NCCCN2CCOCC2)c2ccccc2oc1=O	-6%
67	COCCCNC(=O)CS(=O)Cc1nc(-c2ccccc2C)oc1C (stereo not drawn)	27%
68	Nn1c(SCC(=O)Nc2ccc3c(c2)OCO3)nnc1C1CCCCC1	4%
69	Cn1c(=O)c2cc(NC(=O)c3ccccc3Cl)c(=O)oc2n(C)c1=O	2%
70	CC(C)COc1ccc(C(=O)OCCN2CCOCC2)cc1	83%
71	Cn1c(CNc2ccccc2O)nc2ccccc21	12%
72	COc1ccc(Cn2nc(C)cc2C)cc1OC	5%

New compounds follow.
No.	Compound	AmpC inh no det
73	O=C(O)COc1ccccc1	-13%
74	CN1CCN(c2nc3c(c(=O)[nH]c(=O)n3C)n2CC(N)=O)CC1	-5%
75	COc1ccccc1N1CCN(C(=O)CCc2ccc(S(=O)(=O)NCC(C)C)cc2)CC1	121%
76	Cc1ccccc1NC(=O)c1c(O)c2cccc3c2n(c1=O)CC3	14%
77	Cc1nc2ccc(S(=O)(=O)NC(C(=O)Nc3nccs3)C(C)C)cc2s1 (stereo not drawn)	4µM*[single pt active]
78	COc1cc(NC(=O)c2cc(-c3ccco3)on2)c(OC)cc1Cl	-4%
79	CCOC(=O)N1CCN(C(=O)CCCn2c(=O)[nH]c3ccccc3c2=O)CC1	6%
80	Cc1cc(N2CCCCCC2)nc(-c2ccccc2O)n1	14%
81	CCn1c(CC(=O)Nc2ccccc2)nnc1SCC(=O)Nc1ccccc1C(=O)OC	41%
82	O=C(c1ccc(Cl)cc1Cl)N1CCC(c2nc3c(nnn3Cc3ccco3)c(=O)[nH]2)CC1	81%
83	CCNc1cc(O)ccc1C	-7%
84	O=C(CCn1nc(-c2ccccc2)ccc1=O)N1CCOCC1	-3%
85	Cc1ccc(C(=O)NCC2CCCO2)o1 (stereo not drawn)	12%
86	Cc1ccc(NC(=O)CCC(=O)OCC(F)(F)C(F)F)cc1	1%
87	CCC(C)C(N)C(=O)NC(CCC(=O)OCc1ccccc1)C(N)=O (stereo not drawn)	20%
88	Cn1nnnc1SCc1ccc(F)cc1	-2%
89	COc1ccc2c3c1O[C@H]1C[C@H](O)C=C[C@@]31CCN(C)C2	8%&2%&-13%
90	CCOC(=O)C1C(c2cccc(Cl)c2Cl)NC(=O)NC1(O)C(F)(F)F (stereo not drawn)	40%
91	Cc1cccc2cc(CN(CCc3ccccc3)C(=O)N3CCOCC3)c3nnnn3c12	37%
92	O=C(COc1ccc(Cl)cc1)NCc1nnc(SCC(=O)NCc2ccc3c(c2)OCO3)o1	34%
93	C=CCn1c(SCC(=O)Nc2ccc(NC(=O)c3ccco3)c(OC)c2)nnc1-c1ccncc1	105%
94	COc1ccc(OC)c(-c2cc(C(=O)NCCCn3ccnc3)no2)c1	15%
95	CCc1nnc(NC(=O)CSc2nnc(-c3ccncc3)n2Cc2ccccc2)s1	-6%
96	COc1ccc(C(c2nnnn2C2CCCCC2)N2CCN(c3ccc(OC)cc3)CC2)cc1 (stereo not drawn)	47%
97	O=C(CSCCO)Nc1cc(C(F)(F)F)ccc1Cl	1%
98	COc1cccc(C2CC(=O)Nc3c2c(=O)n(C)c(=O)n3C)c1OC (stereo not drawn)	-9%
99	Cn1c(CCNC(=O)c2cccs2)nnc1SCC(=O)Nc1nc(-c2ccccc2)cs1	26%
100	CCn1nnnc1SCC(=O)Nc1nnc(C(C)C)s1	-2%
101	COc1cc(C(=O)Nc2ccc3c(c2)OCCO3)c(-n2cnnn2)cc1OC	-1%
102	CCOC(=O)CSc1nnc(CNC(=O)c2ccc(S(=O)(=O)N3CCCC3)cc2)n1C	30%
103	N#CC1=C(N)C(C#N)(C#N)[C@H](c2ccsc2)[C@H]2COCC=C12	-15%
104	COc1ccc(-c2nc3cccc(C)n3c2NCc2ccco2)cc1OC	60%
105	O=C(Nc1cccc(-c2nc3cccnc3s2)c1)c1ccco1	2%
106	COC(=O)Nc1nnc(-c2ccncc2)s1	-18%
107	COC(=O)c1[nH]c2ccc(Cl)cc2c1NC(=O)CN1CCc2cc(OC)c(OC)cc2C1	113%
108	CCCNC(=O)c1n[nH]c(=O)c2ccccc12	1%

Brought forward from above: 2 entries, followed by the next part.
No.	Compound	AmpC inh no det
107	COC(=O)c1[nH]c2ccc(Cl)cc2c1NC(=O)CN1CCc2cc(OC)c(OC)cc2C1	113%
108	CCCNC(=O)c1n[nH]c(=O)c2ccccc12	1%
109	Nc1ccc(C23CC4CC(CC(O)(C4)C2)C3)cc1	-4%
110	Cc1cc(N(C)C)c(C#N)c(N2CCCCC2)n1	15%
111	O=C(O)c1ccc(OCC(O)Cn2cnc3ccccc32)cc1 (stereo not drawn)	-7%
112	COCCn1c(=O)c(CCc2ccccc2)nc2cnc(Nc3cccc(OC)c3)nc21	9%
113	CCn1c(=O)cc(OCC(=O)Nc2ccc3c(c2)OCCO3)c2ccccc21	58%
114	c1ccc2c(c1)-c1nc3ccccc3cc1[C@H]2N1CCOCC1	8%[5.75 µM]
115	CC(=O)N1CCC2(CCCN(Cc3ccccc3)C2)CC1	7%
116	Cc1ccc2oc(=O)c3cc(C(=O)N4CCN(c5ncccn5)CC4)sc3c2c1	4µM*[single pt active]
117	CS(=O)(=O)N1CCCC(C(=O)NCc2ccc(F)cc2)C1 (stereo not drawn)	17%
118	O=C(N1CCOCC1)N1CCN(Cc2ccccc2)CC1	-4%
119	N/C(=N/O)c1nc(N2CCCCC2)nc(N2CCCCC2)n1	24%
120	COc1ccccc1CNc1ncncc1-c1ccccc1C(F)(F)F	30%
121	COC(=O)c1ccccc1NC(=O)COC(C)=O	-9%
122	CCN1CCN(c2ncnc3sc(C(=O)Nc4ccccc4F)c(C)c23)CC1	38%
123	O/N=C1\CC/C(=N\O)c2nn(-c3ccc(Cl)cc3Cl)nc21	-8%
124	COc1ccccc1C1C=C(c2ccc(C)cc2)Nc2nnnn21 (stereo not drawn)	2%
125	Cc1ccc(S(=O)(=O)N2CCSC2c2ccco2)cc1 (stereo not drawn)	-10%
126	CCOC(=O)C1=C(C)NC(=S)NC1c1cccc(O)c1 (stereo not drawn)	-2%
127	O=C(Nc1ccc(N2CCN(C(=O)c3ccco3)CC2)cc1)c1cccc(F)c1	14%
128	COc1ccccc1Nc1ncnc2c1oc1ccccc12	34%
129	CCOC(=O)C(C)n1nc(C)c2sc3ccccc3c2c1=O (stereo not drawn)	36%
130	CCN(C(=O)c1ccnc(C(C)(C)C)c1)c1ccccc1	38%
131	CC1CC(C)CN(C(=O)CSc2nnc(-c3ccc(Cl)cc3)o2)C1 (stereo not drawn)	-4%

Screening results: PubChem BioAssay, National Center for Advancing Translational Sciences (NCATS)

Only part of the results is shown; the hit share may differ from the screen's.
